rRNA inh HTS = selective bacterial rRNA inhibition in E. coli | GFP signal change (wild-type ribosome), % (test concentration not listed) | 350,000 tested, 1.6% active | AID 720706 | E. coli WT GFP vs humanized-ribosome RFP mutants, fluorescence, 24 h; stronger effect = lower value; DMSO median 0, no signal -100;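 active = significant combined selectivity score with lowered wild-type GFP, culture density cut under 30%, mutant RFP and density less affected; inactive = any of these conditions unmet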; note: one replicate is shown; some compounds called inactive have numbers as strong as hits
FGF22 binding = binders of recombinant human FGF22 by thermal shift. Q9HCT0. SYPRO orange fluorescence; percent of sucrose octasulfate shift, DMSO zero. calls only at 9.99 µM. 340,000 tested, 1.5% active;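 active = melting point raised past a set limit in the mean and every replicate; three in four hits are not shown here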
Target sequence (Q9HCT0 whole entry, looked up): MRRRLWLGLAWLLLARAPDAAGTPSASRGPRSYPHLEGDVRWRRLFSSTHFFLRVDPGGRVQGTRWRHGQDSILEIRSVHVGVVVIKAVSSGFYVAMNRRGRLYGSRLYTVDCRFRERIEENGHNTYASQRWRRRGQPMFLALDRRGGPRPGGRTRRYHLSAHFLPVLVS
rRNA inh HTS OD600 = second read-out of rRNA inh HTS, no call of its own (marks repeat the call); OD600 change, %; measured here: OD600 growth;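 optical density of the mix in the first replicate; 0 = DMSO median and -100 = no signal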
rRNA inh HTS RFP = further read-out of rRNA inh HTS, marked with its call; RFP signal change, %; measured here: RFP humanized mutant strains;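 first replicate; 0 = DMSO median and -100 = no signal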
The depositor's hits bear a star; i = inactive. An excerpt. The share of hits here may be higher or lower than overall.

Under each structure – rRNA inh HTS, rRNA inh HTS OD600, rRNA inh HTS RFP, FGF22 binding
> O=C(C[C@H]1C=C[C@@H](NC(=O)C2CCOCC2)[C@H](CO)O1)NCc1ccncc1
  0, 0, -1.9, i
> CCC(=O)N(C)C[C@@H]1Oc2cc(C#Cc3ccncc3)ccc2S(=O)(=O)N([C@@H](C)CO)C[C@H]1C
  1, -7, 2.7, i
> Cc1ccccc1S(=O)(=O)N1CCCCN2[C@@H](CO)[C@@H](c3ccc(C#CCN(C)C)cc3)[C@@H]2C1
  1, 6, -1.1, i
> COc1ccc(C#Cc2ccc3c(c2)[C@H]2[C@H](CCN2C(C)=O)[C@H](CO)N3)cc1
  -4, 4, -3.3, i
> CC(C)CC#Cc1cnc2c(c1)C(=O)N([C@@H](C)CO)C[C@H](C)[C@@H](CN(C)C(=O)C1CCOCC1)O2
  5, 6, -3.1, i
> C[C@H](CO)N1C[C@H](C)[C@@H](CN(C)Cc2cncnc2)Oc2ncc(C#CC3(O)CCCC3)cc2C1=O
  -2, -3, 0.1, i
> COc1ccc(CN(C)C[C@@H]2OCCCC[C@@H](C)Oc3ccc(NS(=O)(=O)c4cn(C)cn4)cc3C(=O)N([C@@H](C)CO)C[C@H]2C)cc1
  1, 2, -0.7, i
> Cc1ccccc1-c1ccc2c(c1)O[C@H](CN(C)Cc1ccncc1)[C@@H](C)CN([C@@H](C)CO)S2(=O)=O
  -40, -62, 9.5, i
> C[C@@H]1CN([C@H](C)CO)C(=O)c2cc(NS(=O)(=O)c3ccccc3)ccc2O[C@@H](C)CCCCO[C@H]1CN(C)S(=O)(=O)c1ccc(Cl)cc1
  2, 3, -0.3, i
> Cc1noc(C)c1NC(=O)Nc1ccc2c(c1)CC(=O)N([C@H](C)CO)C[C@H](C)[C@H](CN(C)Cc1ccc(-c3ccccc3)cc1)O2
  0, -10, -0.2, i

Another view of part of the listing above:
rRNA inh HTS | rRNA inh HTS OD600 | rRNA inh HTS RFP | FGF22 binding | structure
1 | 2 | -0.7 | i | COc1ccc(CN(C)C[C@@H]2OCCCC[C@@H](C)Oc3ccc(NS(=O)(=O)c4cn(C)cn4)cc3C(=O)N([C@@H](C)CO)C[C@H]2C)cc1
-40 | -62 | 9.5 | i | Cc1ccccc1-c1ccc2c(c1)O[C@H](CN(C)Cc1ccncc1)[C@@H](C)CN([C@@H](C)CO)S2(=O)=O
2 | 3 | -0.3 | i | C[C@@H]1CN([C@H](C)CO)C(=O)c2cc(NS(=O)(=O)c3ccccc3)ccc2O[C@@H](C)CCCCO[C@H]1CN(C)S(=O)(=O)c1ccc(Cl)cc1
0 | -10 | -0.2 | i | Cc1noc(C)c1NC(=O)Nc1ccc2c(c1)CC(=O)N([C@H](C)CO)C[C@H](C)[C@H](CN(C)Cc1ccc(-c3ccccc3)cc1)O2

Additional compounds follow.
Under each structure – rRNA inh HTS, rRNA inh HTS OD600, rRNA inh HTS RFP, FGF22 binding
> COc1ccc(S(=O)(=O)Nc2cccc3c2O[C@H](CN(C)S(=O)(=O)c2ccc(Cl)cc2)[C@@H](C)CN([C@H](C)CO)C3=O)cc1
  0, 8, -6.7, i
> O=C(Cc1ccccn1)N[C@@H]1CC[C@H](CCNS(=O)(=O)c2cccc(F)c2)O[C@@H]1CO
  -3, 1, -1.3, i
> C/C=C/c1ccc([C@H]2[C@@H](CO)N(S(C)(=O)=O)[C@@H]2CN(CC)C(C)=O)cc1
  0, -6, -2.1, i
> CC(C)NC(=O)N(C)C[C@H]1Oc2cc(C#C[C@H](C)O)ccc2S(=O)(=O)N([C@H](C)CO)C[C@@H]1C
  1, 5, -4.7, i
> Cc1noc(C)c1NC(=O)N(C)C[C@H]1Oc2c(NS(=O)(=O)c3cn(C)cn3)cccc2C(=O)N([C@@H](C)CO)C[C@H]1C
  7, 7, -1.0, i
> O=C(Nc1ccc2c(c1)[C@@H]1C[C@H](CC(=O)N3CCCCC3)O[C@H](CO)[C@@H]1O2)c1ccc2c(c1)OCO2
  -6, -8, -0.8, i
> CCC(=O)N1CC2(C1)CN(Cc1ccccc1Cl)[C@H](CO)c1[nH]c3cc(OC)ccc3c12
  -3, -3, 2.5, i
> C[C@H]1CN([C@@H](C)CO)C(=O)CCCn2cc(nn2)CO[C@H]1CN(C)S(=O)(=O)c1cn(C)cn1
  0, 2, -1.4, i
> COC(=O)C[C@@H]1C[C@@H]2c3cc(NC(=O)NC4CCCCC4)ccc3O[C@@H]2[C@@H](CO)O1
  2, 5, -2.3, i
> COc1ccc2c3c([nH]c2c1)[C@H](CO)N(C(=O)C1CCC1)CC31CN(C(=O)c2ccncc2)C1
  -2, -4, 0.2, i
> COCC(=O)Nc1ccc2c(c1)OC[C@H](C)N(C(=O)c1cnccn1)C[C@@H](C)[C@@H](OC)CN(C)C2=O
  2, 5, -1.0, i
> O=C(Cc1ccccn1)NCC[C@@H]1CC[C@@H](NC(=O)Nc2ccc(C(F)(F)F)cc2)[C@H](CO)O1
  -2, -7, 9.8, i
> CCC(=O)Nc1ccc2c(c1)C(=O)N(C)C[C@H](OC)[C@H](C)CN(C(=O)NC(C)C)[C@@H](C)CO2
  -1, 6, -1.5, i
> CC(=O)N[C@H]1CC[C@H](CCNC(=O)C2CCC2)O[C@@H]1CO
  2, 8, -0.6, i
> Cc1ccc(S(=O)(=O)Nc2cccc3c2O[C@@H](CN(C)Cc2ccc(-c4ccccc4)cc2)[C@@H](C)CN([C@H](C)CO)C3=O)cc1
  0, -1, 0.4, i
> CN1c2ccc(-c3ccc(C#N)cc3)cc2[C@H]2[C@H](CCN2S(=O)(=O)c2ccc(F)cc2)[C@@H]1CO
  -2, -3, 3.1, i
> C[C@@H]1C=CCCO[C@]12C(=O)N(CC1CC1)c1cccc(Br)c12
  -31, -64, -13, i
> COc1ccc(NC(=O)Nc2ccc3c(c2)C(=O)N([C@@H](C)CO)C[C@@H](C)[C@@H](CN(C)C(=O)Nc2ccc(OC)cc2)OCCCC[C@H](C)O3)cc1
  4, 8, 0.0, i
> COCC(=O)Nc1ccc2c(c1)C(=O)N(C)C[C@H](OC)[C@@H](C)CN(C(=O)CC1CC1)[C@H](C)CO2
  1, 0, 0.1, i
> O=C(C[C@H]1C=C[C@@H](NC(=O)Cc2cccnc2)[C@H](CO)O1)NCc1ccc2c(c1)OCO2
  0, 2, 1.4, i
> COc1ccccc1-c1cnc2c(c1)C(=O)N([C@@H](C)CO)C[C@@H](C)[C@H](CN(C)Cc1ccc(F)cc1)O2
  0, -1, 7.5, i
> COc1ccc(NC(=O)N(C)C[C@H]2OCCCC[C@H](C)Oc3ccc(NC(=O)c4ccncc4)cc3C(=O)N([C@@H](C)CO)C[C@@H]2C)cc1
  -1, -2, 0.3, i
> CC(C)CC#Cc1ccc2c(c1)O[C@@H](CN(C)Cc1ccccc1F)[C@@H](C)CN([C@H](C)CO)S2(=O)=O
  4, 1, -1.2, i
> C[C@H](CO)N1C[C@H](C)[C@@H](CN(C)S(=O)(=O)c2ccc(F)cc2)OCCCC[C@H](C)Oc2ccc(NS(=O)(=O)c3cn(C)cn3)cc2C1=O
  1, 4, -1.3, i
> O=C(Nc1ccc2c(c1)[C@H]1C[C@H](CC(=O)N3CCCCC3)O[C@@H](CO)[C@H]1O2)NC1CCCC1
  -4, -7, 0.3, i
> Cc1ccc(-c2ccc3c(c2)O[C@H](CN(C)Cc2ccc(F)cc2)[C@@H](C)CN([C@H](C)CO)S3(=O)=O)cc1
  -6, -7, -4.0, i
> COC(=O)[C@]12C[C@H](CC(=O)NCCc3ccccc3OC)C(=O)N(Cc3ccccc3)C1=C[C@H](C(C)(C)C)O[C@@H]2C
  5, 4, -0.3, i
> C[C@H](CO)N1C[C@H](C)[C@@H](CN(C)CC2CCCCC2)OCCCC[C@H](C)Oc2ccc(NC(=O)c3ccccc3)cc2C1=O
  -3, -7, 0.6, i
> COCC#Cc1cnc2c(c1)C(=O)N([C@@H](C)CO)C[C@H](C)[C@H](CN(C)S(=O)(=O)c1cn(C)cn1)O2
  4, 3, 1.1, i
> C[C@@H]1CN([C@H](C)CO)C(=O)c2cc(NC(=O)Cc3ccccc3)ccc2O[C@@H](C)CCCCO[C@@H]1CN(C)Cc1ccccc1
  3, -5, 2.0, i

Next part; the last 2 above are carried over.
Under each structure – rRNA inh HTS, rRNA inh HTS OD600, rRNA inh HTS RFP, FGF22 binding
> COCC#Cc1cnc2c(c1)C(=O)N([C@@H](C)CO)C[C@H](C)[C@H](CN(C)S(=O)(=O)c1cn(C)cn1)O2
  4, 3, 1.1, i
> C[C@@H]1CN([C@H](C)CO)C(=O)c2cc(NC(=O)Cc3ccccc3)ccc2O[C@@H](C)CCCCO[C@@H]1CN(C)Cc1ccccc1
  3, -5, 2.0, i
> COC(=O)/C=C1\Nc2ccc(Cl)cc2C(=O)NC1=O
  4, -1, 3.4, i
> COc1ccc(OC(=O)N(C)C[C@@H]2OCc3cn(nn3)CCCC(=O)N([C@@H](C)CO)C[C@@H]2C)cc1
  2, 7, 0.2, i
> CC(C)NC(=O)Nc1ccc2c(c1)CC(=O)N([C@@H](C)CO)C[C@H](C)[C@@H](CN(C)CC1CCCCC1)O2
  3, -3, 2.4, i
> COC(=O)C[C@@H]1C[C@H]2c3cc(NC(=O)C4CCOCC4)ccc3O[C@H]2[C@@H](CO)O1
  2, 5, -2.9, i
> C[C@@H]1CN([C@H](C)CO)S(=O)(=O)c2ccc(C#Cc3ccccc3F)cc2O[C@@H]1CN(C)C(=O)Cc1cccnc1
  -41, -64, 24, i
> COc1cccc(NC(=O)Nc2ccc3c(c2)C(=O)N(C)C[C@H](OC)[C@H](C)CN(C)[C@@H](C)CO3)c1
  -1, 2, 3.1, i
> C[C@@H]1CN([C@H](C)CO)C(=O)c2cc(C#Cc3ccncc3)cnc2O[C@@H]1CN(C)C(=O)CN(C)C
  7, 2, -1.3, i
> CC(C)NC(=O)N(C)C[C@@H]1Oc2ccc(NC(=O)Cc3ccccc3)cc2CC(=O)N([C@@H](C)CO)C[C@H]1C
  0, 4, 0.1, i
> CC(=O)N1[C@H](C(=O)NCc2ccccc2F)[C@@H](CO)[C@@H]2Cn3c(cccc3=O)[C@@H]21
  2, -5, -0.1, i
> O=S(=O)(N[C@H]1CC[C@H](CCn2cc(-c3ccccc3F)nn2)O[C@@H]1CO)c1ccc(F)cc1
  -7, -1, 1.1, i
> CCCN1[C@@H]2c3ccc(-c4cccc(OC)c4)c(=O)n3C[C@H]1[C@H](CO)[C@H]2C(=O)NCC
  -4, 0, -0.2, i
> N#C[C@H]1[C@H](c2ccc(-c3cccnc3)cc2)[C@H](CO)N1C(=O)C1CCC1
  2, 6, -0.6, i
> C[C@@H]1CCCCO[C@@H](CN(C)C(=O)Nc2cccc3ccccc23)[C@H](C)CN([C@H](C)CO)C(=O)c2cc(NS(=O)(=O)c3ccccc3)ccc2O1
  3, 13, 4.6, i
> C[C@@H]1CN([C@@H](C)CO)C(=O)Cc2cc(NC(=O)Nc3ccc4c(c3)OCO4)ccc2O[C@@H]1CN(C)S(C)(=O)=O
  4, 2, -1.3, i
> O=C(C[C@@H]1CC[C@@H]2[C@H](COC[C@H](O)CN2C(=O)Nc2ccc(Cl)cc2)O1)NCCc1ccncc1
  -45, -39, -11, i
> C[C@@H]1CN([C@@H](C)CO)C(=O)Cc2cc(NC(=O)Nc3ccc4c(c3)OCO4)ccc2O[C@H]1CN(C)C
  -2, 5, -1.9, i
> COc1ccc(CNC(=O)C[C@H]2C[C@H]3c4cc(NS(C)(=O)=O)ccc4O[C@H]3[C@@H](CO)O2)cc1
  0, -6, -3.5, i
> C[C@H](CO)N1C[C@H](C)[C@H](CN(C)C(=O)CCCN(C)C)OCCCC[C@H](C)Oc2ccc(NS(=O)(=O)c3ccccc3)cc2C1=O
  4, 6, -1.7, i
> Cc1noc(C)c1NC(=O)NCC[C@H]1CC[C@H](NC(=O)c2ccccc2)[C@@H](CO)O1
  1, -2, -2.0, i
> O=C(C[C@@H]1C=C[C@@H](NS(=O)(=O)c2ccc(F)cc2)[C@@H](CO)O1)NC1CCCCC1
  3, 0, -2.0, i
> C[C@H](CO)N1C[C@H](C)[C@H](CN(C)S(=O)(=O)c2ccc(-c3ccccc3)cc2)OCc2cn(nn2)CCCC1=O
  -5, -7, 5.6, i
> CCCC#Cc1ccc2c(c1)O[C@H](CN(C)Cc1ccc3c(c1)OCO3)[C@H](C)CN([C@H](C)CO)S2(=O)=O
  -5, -35, 0.6, i
> C[C@@H]1CN([C@@H](C)CO)C(=O)Cc2cc(NS(=O)(=O)c3cn(C)cn3)ccc2O[C@@H]1CN(C)Cc1ccccc1
  6, 33, 5.2, i
> C[C@H](NC(=O)C[C@H]1C[C@H]2c3cc(NC(=O)Cc4ccncc4)ccc3O[C@H]2[C@H](CO)O1)c1ccccc1
  0, 1, 0.7, i
> C[C@H]1CN([C@@H](C)CO)S(=O)(=O)c2ccc(C#Cc3ccccn3)cc2O[C@H]1CN(C)C
  7, 5, -5.2, i
> O=C(CC(F)(F)F)N1C[C@@H]2[C@H](c3ccccc31)[C@H](CO)N2C(=O)c1cccnc1
  2, 5, 1.3, i
> C[C@H]1CN([C@@H](C)CO)C(=O)c2cc(NS(=O)(=O)c3ccc(Cl)cc3)ccc2O[C@H]1CN(C)Cc1ccc(C(=O)Nc2ccccc2N)cc1
  -1, -6, 2.6, i
> COc1ccc(S(=O)(=O)Nc2ccc3c(c2)C(=O)N([C@H](C)CO)C[C@H](C)[C@@H](CN(C)C(=O)Nc2ccc(F)cc2)O3)cc1
  5, 5, -1.0, i
> CNC[C@H]1Oc2c(NC(=O)Nc3ccc(F)cc3)cccc2C(=O)N([C@@H](C)CO)C[C@H]1C
  -2, -3, -1.5, i
> COC(=O)C[C@H]1CC[C@H]2[C@@H](COc3ccc(NC(=O)c4cccc(OC)c4)cc3C(=O)N2C)O1
  -1, -2, 2.7, i
